Source: PubChem BioAssay (National Center for Advancing Translational Sciences (NCATS))
Sfp PPTase inh: inhibitors of Bacillus subtilis Sfp phosphopantetheinyl transferase. Q9F4F7. Biochemical Sfp PPTase activity, qHTS. Potency, µM, for inactives: max response, negative = inhibition, usual class: inhibitors. actives 3.5% (n = 310,000). AID 1490; active means well fitted inhibition curve with a large enough effect; inconclusive means small, poorly fitted or top-dose-only effect, or another doubt; inactive means no such curve, though single readings can be large or run the other way;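 further: the enzyme is Sfp with the accession as filed and its product quenches rhodamine fluorescence; potency means the concentration at half of the fitted maximal effect; 0% = enzyme reaction without inhibitor and -100% = no enzyme wells; top concentration of the series not given in the record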
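Fluorescence-quenching assay with 15 nM Sfp, 5 uM rhodamine-CoA and 12.5 uM BHQ-2-labelled ybbR peptide in pH 7.6 Hepes/MgCl2 buffer. Enzyme was pre-incubated with compound for 15 min at room temperature. Rate was taken from the 30-min fluorescence change (525/598 nm).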
Six1-Eya2 inh: inhibitors of human Six1/Eya2 interaction; activity change, % (no concentration beside the values); actives 0.56% (n = 360,000); AID 651725; AlphaScreen GST-Six1/His-Eya2 binding, biochemical; active compounds read low; control for the full effect not named in the record; in the data active = activity change below about -65%; inconclusive = about -30% to -65%; inactive = above about -30%; further: on the % scale 0 is the no-effect control and ±100 the full control effect
Target sequence (O00167 whole entry, looked up): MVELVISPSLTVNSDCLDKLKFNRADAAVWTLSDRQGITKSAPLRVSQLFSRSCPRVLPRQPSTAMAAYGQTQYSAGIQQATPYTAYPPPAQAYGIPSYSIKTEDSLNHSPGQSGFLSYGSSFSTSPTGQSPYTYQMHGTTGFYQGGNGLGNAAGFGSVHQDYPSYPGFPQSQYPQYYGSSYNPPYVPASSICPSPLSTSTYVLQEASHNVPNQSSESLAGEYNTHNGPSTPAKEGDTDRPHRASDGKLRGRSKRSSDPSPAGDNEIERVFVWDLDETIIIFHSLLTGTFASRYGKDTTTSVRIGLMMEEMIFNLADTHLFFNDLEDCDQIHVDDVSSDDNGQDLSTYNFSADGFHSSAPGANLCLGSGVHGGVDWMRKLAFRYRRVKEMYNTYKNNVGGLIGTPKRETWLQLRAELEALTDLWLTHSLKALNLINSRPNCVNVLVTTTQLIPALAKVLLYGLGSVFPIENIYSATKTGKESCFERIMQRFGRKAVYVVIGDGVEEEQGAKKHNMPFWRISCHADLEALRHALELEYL
Target sequence (Q15475 whole entry, looked up): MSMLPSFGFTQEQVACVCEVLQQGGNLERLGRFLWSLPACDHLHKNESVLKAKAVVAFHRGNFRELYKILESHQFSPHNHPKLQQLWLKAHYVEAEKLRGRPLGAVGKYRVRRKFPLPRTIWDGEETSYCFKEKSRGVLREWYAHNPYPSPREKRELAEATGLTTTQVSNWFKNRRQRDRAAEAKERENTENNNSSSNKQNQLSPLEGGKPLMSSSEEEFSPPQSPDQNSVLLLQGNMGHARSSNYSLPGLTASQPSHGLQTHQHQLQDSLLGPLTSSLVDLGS
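Compounds are tested against tagged Six1 and Eya2 proteins bridged by glutathione donor and nickel acceptor beads; after a one-hour incubation at 37 °C without light, AlphaScreen emission is recorded.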
TRPV1 potentiator: human TRPV1 potentiation; TRPV1-expressing cells, Fluo-8 calcium influx, capsaicin EC20 potentiation; host cell line not named in the record; control for the full effect not named in the record; potentiation, % at 8.33 µM; actives 0.02% (n = 320,000); AID 540277; active means potentiation above 80%; inconclusive means 30% to 80%; inactive means below 30%; further: 0% is about no effect
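Fluo-8 calcium influx in TRPV1-expressing cells, kinetic read (ex 480/em 520 nm). Compound added and read 3 min for agonist activity, followed by capsaicin at EC20 final and 2 min further read for enhancement.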
PINK1 expr mod: PINK1 expression modulation. PINK1 immunofluorescence, high-content cytometry, 24 h. Potency, µM (doses to about 76.6 µM), for inactives: at the highest dose activation (PINK1 increase), actives largely listed as activators. actives 0.2% (n = 410,000). AID 624263; active = well fitted activation curve with a large enough effect; inconclusive = small, poorly fitted or top-dose-only effect; inactive = flat fitted curve, though single readings scatter; cell line not stated here;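 further: potency means the concentration at half of the fitted maximal effect; % of control where 0% means no effect; nearly all actives have a fitted effect of over 65% in size; a mitochondrial uncoupler was the plate control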
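Stable cell line, 250 cells/well, 12 h attachment; compounds pinned at 5 concentrations, 24 h; CCCP control. Fixed with nuclear dye, primary antibodies 12 h at 10 degrees C, secondary plus cell stain; laser-scanning cytometer read.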
CtBP-E1A inh: blocks the CtBP interaction with E1A; AlphaScreen GST-E1A/His-CtBP binding, 1536-well; active compounds read low; control for the full effect not named in the record; activity change, % (no concentration beside the values); actives 0.49% (n = 340,000); AID 651724; in the data active means activity change below about -65%; inconclusive means about -30% to -65%; inactive means above about -30%; further: on the % scale 0 is the no-effect control and ±100 the full control effect
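Homogeneous bead-based format: GST-tagged E1A captured on glutathione donor beads, His-tagged CtBP on nickel acceptor beads; compounds precede bead addition by 2 h at 37 °C.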
D2 ag: activates the human D2 dopamine receptor; DiscoveRx PathHunter D2 beta-arrestin, luminescence, 90 min; 100% = 57 uM dopamine signal; actives 0.084% (n = 360,000); P14416; AID 624465; activation, % (concentration not given with the values); in the data active = activation above about 40%; inconclusive = about 15% to 40%; inactive = below about 15%; further: compound concentration not given in the record; the text of the record calls up to 30% inactive
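DiscoveRx PathHunter D2 beta-arrestin cells (2,100/well) attached overnight, then compound-stimulated 90 min at 37 C in HBSS/10 mM HEPES/0.1% Tween-20 buffer; beta-galactosidase complementation read by luminescence after 1 h at ambient temperature. Dopamine 57 uM final (EC100) as control.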
D2 potentiator: potentiates the human D2 dopamine receptor allosterically | P14416 | DiscoveRx D2 beta-arrestin cells, luminescence, 90 min; 100% = 57 uM dopamine signal | potentiation, % (concentration not given with the values) | actives 0.23% (n = 360,000); active = potentiation of 50% or more; inconclusive = 30% to 50%; inactive = 30% or less;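 further: compound concentration not given in the record; tested on top of an EC20 dose of dopamine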
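PathHunter D2 cells, attached overnight at 37 deg C, received compound in DMSO plus dopamine at EC20 (50 nM final) for 90 min at 37 deg C. Beta-arrestin recruitment was read as luminescence after 1 h with detection reagent at ambient temperature.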
* marks the source's active call; other numbers are inactive results; ? = inconclusive; . = no result given; & = joins results of further samples; [ ] = dose if it differs, or a comment. Not a hit list. About 3.7% of those tested had a hit in this group.

Sample of the layout, 4 compounds:
SMILES	Sfp PPTase inh	Six1-Eya2 inh	TRPV1 potentiator	PINK1 expr mod	CtBP-E1A inh	D2 ag	D2 potentiator
Cc1cccc(NC(=O)CCS(=O)(=O)c2ccc(Br)cc2)c1	11%	20	-6	4.6%	5	3.5	-16
COC(=O)c1ccccc1NC(=O)Nc1cccnc1	7%	-3	0	1.3%	4	-1.4	5
COc1cc(/C=C(/C(=O)c2cccs2)c2nc3ccccc3[nH]2)ccc1O	8%	-4	7	-46%[inhibitor][38.3 µM]	4	-0.9	2
CCOc1ccc(CNS(=O)(=O)c2cc(CN3C(=O)c4cccnc4C3=O)ccc2OC)cc1	4%	-1	-9	0.1%	-8	7.4	-15

The listing (from the top)
SMILES	Sfp PPTase inh	Six1-Eya2 inh	TRPV1 potentiator	PINK1 expr mod	CtBP-E1A inh	D2 ag	D2 potentiator
Cc1cccc(NC(=O)CCS(=O)(=O)c2ccc(Br)cc2)c1	11%	20	-6	4.6%	5	3.5	-16
COC(=O)c1ccccc1NC(=O)Nc1cccnc1	7%	-3	0	1.3%	4	-1.4	5
COc1cc(/C=C(/C(=O)c2cccs2)c2nc3ccccc3[nH]2)ccc1O	8%	-4	7	-46%[inhibitor][38.3 µM]	4	-0.9	2
CCOc1ccc(CNS(=O)(=O)c2cc(CN3C(=O)c4cccnc4C3=O)ccc2OC)cc1	4%	-1	-9	0.1%	-8	7.4	-15
O=C(Nc1ccccc1)Oc1cccc2cccnc12	.	-92*	.	2.0%	-90*	-0.1	15
CC(C)(C)CC(C)(C)c1ccc(O)c(CN2CCN(CCC#N)CC2)c1	18%	-14	13	12%	-12	-0.9	-19
CCN(C[C@H]1N[C@@](Cc2ccccc2)(C(=O)OC)[C@H]2C(=O)N(Cc3ccccc3)C(=O)[C@@H]12)C(=O)Nc1ccc(C)cc1	.	-8	.	0.8%	-8	1.1	-10
COc1ccc(-c2nn(-c3ccccc3)cc2C(=O)NC(=S)NNC(=O)c2ccncc2)cc1	13%	-29	-1	4.4%	?	-11	-27
CCn1c(=S)sc2nc(C)sc21	.	9	.	-7.8%[38.3 µM]	11	-1.0	-14
COc1cccc(C(=O)Nc2nnc(S(=O)(=O)Nc3cccc(C)c3)s2)c1	36%[activator]	-2	-4	-0.5%	-9	-0.1	-6
O=[N+]([O-])c1ccc(Oc2ccc(S(=O)(=O)Nc3ccccc3)cc2)cc1	6%	-16	8	25%	0	0.2	-6
Cc1cc(NC(=O)c2sc(Nc3cccc(C(F)(F)F)c3)nc2N)no1	3%	-16	8	11%	-22	-0.3	-8
Cn1c(=O)c2ccccc2n(Cc2ccccc2Cl)c1=O	10%	1	1	1.8%	18	0.6	2
Nn1cc(-c2ccccc2)nc1SCC(=O)Nc1ccc(S(N)(=O)=O)cc1	12%	-16	21	-0.8%	-9	1.6	-9
CN(C)c1ccc(-c2csc(C(O)c3ccc(F)cc3)n2)cc1 (stereo not given)	.	?	.	1.3%	?	13	-4
CCn1c(=O)c2cc(S(=O)(=O)NCCOc3ccccc3)ccc2n(CC)c1=O	10%	-4	-14	4.3%[38.3 µM]	-2	-2.7	-6
c1ccc(-c2ccc(-c3cnc4n3CCCCC4)cc2)cc1	-3%	-18	-17	?	-15	-1.4	-24
Cc1c(CCC(=O)N[C@@H](C)C(=O)O)c(=O)oc2cc3occ(-c4ccccc4)c3cc12	-2%	?	19	-2.6%	-77*	-0.8	-11
CCOC(=O)c1ccc(NC(=O)CNC(=O)C2CCCCC2)cc1	-14%	-5	1	.	-6	3.4	11
CC(Oc1cccc(Cl)c1)C(=O)Nc1ccccc1C(=O)N1CCCCC1 (stereo not given)	.	6	-15	8.4%	0	-3.9	5
CCOC(=O)C(Cc1ccc(OC)c([N+](=O)[O-])c1)NC(=O)CCC(=O)Nc1ccc(C)cc1 (stereo not given)	16%	7	3	-0.9%	4	-1.5	-7
COc1ccc(NC2CCCCC2NS(=O)(=O)c2ccc(C)cc2)cc1 (stereo not given)	3%	-25	3	-0.2%	?	6.6	-6
CC(C)(C)NC(=O)CC1C(=O)NCCN1Cc1c(F)cccc1Cl (stereo not given)	19%	-5	8	-0.6%	-17	-2.4	-13
Cn1cc(CNCCCn2ncc3ccccc32)c(-c2ccccc2F)n1	18%	3	-1	-0.8%	.	-3.8	-27
C=CCSc1nc2ccccc2[nH]1	-7%	7	-3	3.2%	-2	-0.1	-14

Following part.
SMILES	Sfp PPTase inh	Six1-Eya2 inh	TRPV1 potentiator	PINK1 expr mod	CtBP-E1A inh	D2 ag	D2 potentiator
CC(NC(=O)C12CC3CC(CC(C3)C1)C2)C(=O)N/N=C/C1=C(N2CCOCC2)C(=C\c2ccccc2)/CC1 (stereo not given)	7%	-5	12	1.4%	-4	-3.5	-20
COc1cccc(-c2sc3ccc(OC)cc3c2-c2cnc(N3CCOCC3)nc2)c1	.	-10	.	4.9%	-9	.	.
COc1ccc(C(=O)C23CC4CC(C2)CC(C(=O)c2ccc(OC)cc2)(C4)C3)cc1	7%	-4	3	1.6%	.	-5.5	-1
Cc1ccc2cc3cc(C(=O)NCCCN4CC(C)CC(C)C4)oc3nc2c1 (stereo not given)	7%	-5	-2	1.1%	-14	-1.2	-15
COCCOC(=O)C1=C(C)NC2=C(C(=O)CC(c3cccs3)C2)C1c1ccsc1 (stereo not given)	15%	10	-1	5.7%	4	-5.9	-1
O=S(=O)(c1ccc(=S)[nH]c1)N1CCN(Cc2ccccc2)CC1	.	12	.	0.2%	5	-6.4	-5
O=C1NC[C@H](Cc2ccc(O)cc2)N(CCc2cc(C(F)(F)F)cc(C(F)(F)F)c2)C1=O	.	38	.	-0.8%	-21	.	.
CCn1cc(C(=O)NCC(=O)NC(C)(C)CO)c(=O)c2cc3c(cc21)OCO3	10%	-7	-12	0.7%	-2	6.6	-1
CCN(CC)C(=O)C12C(=O)Oc3ccccc3C1C2(C)C(=O)c1ccc(F)cc1 (stereo not given)	17%	0	13	-0.9%	8	0.8	-16
CC(CC(=O)Nc1cccnc1)c1ccccc1 (stereo not given)	13%	-7	-29	0.7%	-16	?	-12
CN(C)c1ccc(CNC(=O)C2(C)Cc3c(-c4cccc(C(F)(F)F)c4)ccnc3O2)cc1 (stereo not given)	.	?	.	2.6%	?	-1.6	-6
Cc1cccc(N2CCN(C(=O)CCC(=O)N3Cc4ccccc4Oc4ncccc43)CC2)c1C	8%	-7	6	-0.7%	1	6.9	-8
CCc1nnc(NC(=O)c2ccc(-c3cc(C(F)(F)F)ccc3Cl)o2)s1	16%	4	8	1.7%[38.3 µM]	6	-1.8	-7
Cc1cccc(Nc2nnc(SCC(=O)NC(=O)CN3CCCC3=O)s2)c1	.	-3	-9	1.0%	2	13	1
CCOc1ccc(S(=O)(=O)N2CCN(S(=O)(=O)c3ccc(C(C)=O)cc3)CC2)cc1	8%	2	-4	0.3%	6	-6.2	-2
COc1ccccc1CCNC(=O)CC1C(=O)NCCN1CCCc1ccccc1 (stereo not given)	-2%	-16	-1	2.1%	-20	-2.3	-11
O=C(CCn1c(=O)sc2ccccc21)NCCC1=CCCCC1	-1%	2	-9	-3.1%[38.3 µM]	5	-2.4	-19
CC(C)(C)OC(=O)C[C@@H]1C/C=C\C[C@@H](CC(=O)N[C@H](CO)Cc2ccccc2)C(=O)NC[C@@H](c2ccccc2)OC1=O	.	4	.	-0.5%	-1	2.3	.
CCc1ccc(C2=CC(c3cc(Br)ccc3F)n3ncnc3N2)cc1 (stereo not given)	?	-13	22	2.2%[38.3 µM]	-6	-4.4	-8
Nc1nc2ccc([N+](=O)[O-])cc2[nH]1	13%	-1	13	-0.4%	.	5.5	-4
Cc1cccc(NC(=O)NNC(=O)c2cc3ccccc3cc2O)c1C	-2%	-4	4	15%	.	0.4	-4
COc1ccccc1NC(=S)N1CCN(C(c2ccccc2)c2ccccc2)CC1	-1%	-13	11	0.2%	.	-3.6	-35
O=C(Nc1ncn[nH]1)C(F)(F)C(F)F	?	-2	-3	-0.8%	-2	0.6	-9
Cc1ccc(OCC(=O)Nc2cc(S(=O)(=O)N3CCCCC3)ccc2N2CCN(C)CC2)c(C)c1	.	?	-6	0.8%	-19	-2.6	-43
C=CCc1ccccc1OCC(=O)N/N=C/c1ccccc1OCC	-18%	0	18	11%	1	-0.4	15

New compounds follow
SMILES	Sfp PPTase inh	Six1-Eya2 inh	TRPV1 potentiator	PINK1 expr mod	CtBP-E1A inh	D2 ag	D2 potentiator
CCOc1ccc(-c2nc(C#N)c(NCC(C)C)o2)cc1	-10%	-16	-7	.	-20	1.8	5
COc1ccc(-n2cnnc2SCC(=O)Nc2cccc([N+](=O)[O-])c2)cc1	-4%	-1	20	-4.0%	1	2.8	2
CCCC(O)(CCC)C(=O)NN(C(=O)CCl)c1cccc(C)c1	5%	-2	-2	-2.1%	-2	-1.4	-1
CC1(C(=O)NS(=O)(=O)c2ccc(F)cc2F)CCN1C(=O)c1cccc(F)c1 (stereo not given)	.	4	.	0.3%	3	-5.4	-7
Cc1nc(-c2nnc(SCC(=O)Nc3ccc(C(F)(F)F)cc3)n2C)cs1	6%	11	-8	0.1%	-11	-4.7	-12
COc1c(Cl)cc(Cl)cc1C(=O)Nc1ccc(C(=O)O)cc1	15%	11	3	-1.0%	8	-0.1	-13
Cc1ccccc1N(C(=O)CNC(=O)c1ccco1)C(C(=O)NC1CCCC1)c1ccncc1 (stereo not given)	10%	5	-14	2.6%	-15	1.9	-4
CC(C)c1ccc(/C=N/NC(=O)c2cccc(Cl)c2)cc1	-27%	1	-7	9.1%	-1	1.6	-15
Cc1ccccc1N1C(=O)c2ccccc2N2C(=O)c3ccccc3C12 (stereo not given)	1%	-7	5	2.9%	-2	1.1	-5
COc1ccccc1/C=C1\SC(=O)N(CC(=O)N(C)C2CCS(=O)(=O)C2)C1=O (stereo not given)	21%	1	3	0.8%	-1	-1.2	-2
O=C(/C=C/c1cccc2ccccc12)NCCC1=CCCCC1	-9%	8	-9	11%	10	-4.5	-13
CCc1c(C)nc2[nH]nc(NC(=O)C(F)(F)F)n2c1=O	-3%	3	3	.	0	-1.2	-14
CNC(=O)c1ccc2snnc2c1	5%	16	10	-1.7%	21	0.4	0
CCN1CCN(c2ncnc3sc4c(c23)CCC(C)C4)CC1 (stereo not given)	-8%	-2	18	-3.7%	-5	-3.5	-14
CCOC(=O)[C@]12CCC=C1N(CCC1=CCCCC1)C(=O)[C@H](CC(=O)N1CCN(C(=O)C3CC3)CC1)C2	.	4	.	2.3%	1	.	.
CCOC(=O)C1=C(C(F)(F)F)Nc2ncnn2C1c1cccc(OC)c1OC (stereo not given)	-6%	9	-4	2.7%&0.0%	11	-1.3	-8
